# Screens from PubChem.
# Mtb hypoxia inh – inhibitors of hypoxia-regulated fluorescent reporter in Mycobacterium tuberculosis. M. tuberculosis hypoxia-regulated fluorescent reporter, fluorescence. fluorescence inhibition, % (no concentration beside the values). 300,000 compounds, 0.1% hits;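 active = 35 to 45% if threefold the growth effect, above 45% if 1.5-fold the growth effect; inactive = the rest, general growth blockers included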;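 note: wells of about 50 µL received 100 nL stock; 0% = vehicle wells and 100% = reference inhibitor wells; whole bacteria with a GFP reporter of the hypoxia response; strong numbers were not always called active; many hits fall short of the cut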
# Autofluor counter – counter-screen for toxin protease inhibitors: compound fluorescence; 360,000 compounds, 3.1% hits; fluorescence intensity (concentration not given with the values); compound autofluorescence counterscreen, microsphere flow cytometry; hits give high values;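 active = at least 3 SD above the mean of all compounds, about 16000 in these data; inconclusive = too few beads counted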;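 note: 100 nL of 1 mM stock went into each well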
# Sa RN4220 lethal – kills Staphylococcus aureus RN4220. 330,000 compounds, 0.33% hits. inhibition, % (no concentration beside the values). S. aureus RN4220 growth, OD600, 16 h. AID 1259311;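 active = z-score of -3 or lower and OD600 up to 0.18 on both plates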;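 note: plate controls were untreated cells for no effect and reference antibiotic for full effect; stock transfer was 100 nL into about 80 µL; one replicate is shown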
# ugtP null kill – growth inhibition of S. aureus ugtP deletion strain; S. aureus RN4220 ugtP deletion, OD600 growth, 16 h; some inactives read as strong as hits; 330,000 compounds, 0.54% hits; growth inhibition, % (no concentration beside the values);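 active = z-score under -3 and OD600 up to 0.15 on both plates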;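 note: plate controls were untreated wells for no effect and antibiotic for full effect; wells of about 80 µL received 100 nL stock; the first replicate is given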
# PrP UTR inh – suppresses PrP 5' UTR mRNA reporter expression; cell-based PrP 5' UTR mRNA reporter, plate reader; 340,000 compounds, 0.35% hits; inhibition, % (test concentration not listed);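 active = every replicate at 50% or more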;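 note: 0 = median of the neutral control wells; tested in H4 reporter cells; numbers are from one replicate; inactives centre near -14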
# BJeLR lethal – kills HRASV12-expressing BJeLR cells | BJeLR (HRASV12) viability, CellTiter-Glo ATP luminescence, 48 h; reference of the scale not given here | inhibition, % (no concentration beside the values) | 300,000 compounds, 0.17% hits;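 active = replicate mean above 50%; inconclusive = above 50% but judged a plate artefact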;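 note: 50 nL library stock added to about 25 µL; numbers are from one replicate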
# Mtb hypoxia inh growth – recorded beside Mtb hypoxia inh, whose call it bears; growth inhibition, %; measured here: M. tuberculosis growth (absorbance);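 0% = vehicle and 100% = reference antibiotic; read after six days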
# The depositor's hits bear a star; u = inconclusive; x = no result given.
no.	structure	Mtb hypoxia inh	Mtb hypoxia inh growth	Autofluor counter	Sa RN4220 lethal
1	Oc1c(Cl)cc(CN2CCCCC2)c2cccnc12	x	x	3025	x
2	C=CCN1C(Cc2ccccc2)COCCS1(=O)=O (centres undefined)	19.9	13.7	x	8.0
3	O=C(Nc1ccc(O)c2c(=O)cc(-c3ccccc3Cl)oc12)c1ccc(Cl)cc1Cl	-0.1	1.3	4168	1.2
4	Cc1occc1C(=O)NNC(=O)c1ccc(F)cc1	1.8	3.0	8921	5.0
5	COCCCn1c(=N)c(C(=O)NCC2CCCO2)cc2c(=O)n3cccc(C)c3nc21 (centres undefined)	5.6	9.2	2606	7.5
6	O=C(NC1CCCCC1)C(c1ccc(O)cc1)N(C(=O)c1cnccn1)c1cccc(F)c1 (centres undefined)	-6.3	7.1	5521	2.2
7	NC(=O)Cn1ccc(O)c(Cc2ccc(Cl)cc2Cl)c1=O	1.5	-1.3	3586	0.7
8	O=C(Cn1cnc2c(OCc3ccccc3)ncnc21)NCCc1c[nH]c2ccccc12	-5.9	0.1	3178	-1.7
9	Cc1onc(-c2c(Cl)cccc2Cl)c1C(=O)Nc1ccc2c(c1)OCCO2	x	x	x	-3.0
10	CCCCCC(C)n1[nH]c(=O)c2c(C)cc(C)nc21 (centres undefined)	-4.4	0.0	5950	2.2
11	C=CCn1c(SC(F)F)nc2scc(-c3ccco3)c2c1=O	9.0	8.1	4348	7.0
12	CCC(C(=O)NC(C)(C)C)N(C(=O)Cn1nnc(-c2ccccc2F)n1)c1cnc2ccccc2c1 (centres undefined)	11.8	10.3	4964	-3.1

no.	ugtP null kill	PrP UTR inh	BJeLR lethal
1	x	-10.3	38.6
2	3.8	x	x
3	2.7	-7.7	-4.1
4	2.1	-12.9	5.8
5	4.4	-5.4	4.1
6	8.6	-10.9	-13.2
7	4.8	-16.8	-10.1
8	-1.5	-3.6	x
9	0.0	-6.6	x
10	-16.9	4.7	-4.1
11	95.2*	-9.4	9.4
12	1.2	-19.3	-8.8

# Grouped by structure: the entries above containing an NH in an aromatic ring.
no.	structure	Mtb hypoxia inh	Mtb hypoxia inh growth	Autofluor counter	Sa RN4220 lethal
8	O=C(Cn1cnc2c(OCc3ccccc3)ncnc21)NCCc1c[nH]c2ccccc12	-5.9	0.1	3178	-1.7
10	CCCCCC(C)n1[nH]c(=O)c2c(C)cc(C)nc21 (centres undefined)	-4.4	0.0	5950	2.2

no.	ugtP null kill	PrP UTR inh	BJeLR lethal
8	-1.5	-3.6	x
10	-16.9	4.7	-4.1

# Following part:
no.	structure	Mtb hypoxia inh	Mtb hypoxia inh growth	Autofluor counter	Sa RN4220 lethal
13	CC(C)CC(=O)NC(NC(=S)Nc1sc2c(c1C#N)CCCC2)C(Cl)(Cl)Cl (centres undefined)	5.8	-7.5	9377	23.6
14	O=C(C1CC12CCCC2)N1CCC(CO)(Cc2ccccc2Cl)CC1 (centres undefined)	5.0	1.3	2284	12.3
15	COc1cccc(C(C(=O)NC2CCCCC2)N(C(=O)c2ccco2)c2ccccc2OC)c1 (centres undefined)	15.3	9.6	3595	2.7
16	CCn1cc(/C=C(\NC(=O)c2ccc(OC)c(OC)c2)C(=O)N2CCOCC2)c2ccccc21	10.0	1.0	5036	4.4
17	COc1ccc(C(=O)NCCSCc2ccccc2C)cc1	1.7	-4.2	u	1.3
18	CCn1c(COc2cc(C)cc(C)c2)nnc1SCC(=O)N1CCN(c2ccccc2)CC1	3.9	6.8	8547	3.5
19	Cn1c(CCN2CCN(c3ccccn3)CC2)nc2cc(NS(=O)(=O)c3ccc(Cl)cc3)ccc21	2.6	10.8	5974	0.3
20	C=CCN(CC=C)C(=O)C[n+]1ccc(C(N)=O)cc1	-2.3	-1.2	4297	7.4
21	CC1=C(C)C(OCCBr)N(c2cc(O)c(Cl)cc2F)C1=O (centres undefined)	-3.9	7.3	4362	1.7
22	Cc1ccc(CN2CCCN(Cc3ccc(Cl)cc3)S2(=O)=O)cc1	6.0	-3.0	2987	0.5
23	O=C(NCC(c1ccco1)N1CCN(c2ccccc2)CC1)c1cccs1 (centres undefined)	1.7	2.0	4689	2.7
24	O=S(=O)(c1cccs1)N1CCN(c2ccccc2)CC1	-2.0	-7.8	4164	5.2

no.	ugtP null kill	PrP UTR inh	BJeLR lethal
13	19.3	-40.5	2.2
14	-8.9	-12.9	-10.4
15	13.6	-33.2	-14.3
16	-2.8	-14.8	-7.6
17	14.0	-9.4	-2.2
18	9.0	-5.2	6.1
19	4.8	-8.2	-3.8
20	2.7	-16.6	8.3
21	3.6	-21.6	-5.9
22	19.2	-21.9	3.4
23	7.9	-13.5	3.2
24	-4.9	-28.6	6.4

# Entries of single compounds, looked up by structure. Values in the order: Mtb hypoxia inh, Mtb hypoxia inh growth, Autofluor counter, Sa RN4220 lethal, ugtP null kill, PrP UTR inh, BJeLR lethal
# CC1=C(C)C(OCCBr)N(c2cc(O)c(Cl)cc2F)C1=O (centres undefined) is listed with -3.9, 7.3, 4362, 1.7, 3.6, -21.6, -5.9
# Cc1ccc(CN2CCCN(Cc3ccc(Cl)cc3)S2(=O)=O)cc1 is listed with 6.0, -3.0, 2987, 0.5, 19.2, -21.9, 3.4
# COc1ccc(C(=O)NCCSCc2ccccc2C)cc1 is listed with 1.7, -4.2, u, 1.3, 14.0, -9.4, -2.2
# O=S(=O)(c1cccs1)N1CCN(c2ccccc2)CC1 is listed with -2.0, -7.8, 4164, 5.2, -4.9, -28.6, 6.4

# New compounds follow.
no.	structure	Mtb hypoxia inh	Mtb hypoxia inh growth	Autofluor counter	Sa RN4220 lethal
25	O=C(CCCn1c(=O)c2sccc2n(Cc2ccc(F)cc2)c1=O)NCc1ccco1	-4.5	8.2	10982	1.4
26	CCCCN(C(=S)SC)C1CCS(=O)(=O)C1 (centres undefined)	8.8	3.0	x	2.0
27	CCC(=O)NC(=S)NNC(=O)c1ccccc1[N+](=O)[O-]	-6.2	1.1	4739	10.7
28	Cc1ccc(S(=O)(=O)N(C)C)cc1NC(=O)COC(=O)CSc1ccccc1	11.7	0.0	u	0.7
29	COc1ccc(C2CC(c3ccccc3)=NN2C(=S)Nc2ccccc2)cc1 (centres undefined)	-2.8	5.5	3680	0.9
30	CCN(C[C@H]1N[C@@](C)(C(=O)OC)[C@H]2C(=O)N(C)C(=O)[C@@H]12)C(=O)C1CCCCC1	-9.9	-0.3	3632	0.1
31	CC(=NNC(=O)c1nnn(-c2nonc2N)c1COc1ccccc1)c1ccccc1	15.8	1.9	x	4.3
32	O=C(NCc1ccc2c(c1)OCO2)c1ccc(CN2CCc3ccccc3C2)cc1	8.8	6.6	3298	-16.4
33	O=C(NCc1ccccc1)C(c1ccncc1)N(C(=O)c1ccccn1)c1ccccc1 (centres undefined)	8.0	0.2	5385	6.2
34	COc1ccccc1N=CC=C1OC(C)(C)C(C)(C)O1	x	x	4703	x
35	C=CCn1c(SCC(=O)Nc2ccccc2C)nnc1-c1ccncc1	16.6	13.3	2806	9.5
36	Cc1ccc(N2CC(C(=O)Nc3nnc(SCC(N)=O)s3)CC2=O)cc1 (centres undefined)	3.2	15.1	5473	1.6

no.	ugtP null kill	PrP UTR inh	BJeLR lethal
25	2.1	-13.7	3.4
26	4.1	-29.7	-9.5
27	0.0	-13.0	2.7
28	2.9	-10.6	12.0
29	7.3	-19.4	-0.1
30	-1.2	1.7	x
31	0.9	x	x
32	-7.6	-66.1	3.6
33	5.6	-34.8	-5.6
34	x	-36.5	-12.3
35	5.5	-1.5	-3.2
36	14.4	-15.8	-9.4

# The list continues:
no.	structure	Mtb hypoxia inh	Mtb hypoxia inh growth	Autofluor counter	Sa RN4220 lethal
37	CC(CCc1ccccc1)NC(=O)C(=O)NCCc1ccccc1 (centres undefined)	3.5	5.8	2227	2.8
38	Cc1cc(N2C(=O)CC(N3CCC(n4c(=O)[nH]c5ccccc54)CC3)C2=O)no1 (centres undefined)	x	x	4410	1.0
39	CCN1CCN(c2ncc(C(=O)Nc3cc(Cl)c(OC)cc3OC)c3ccccc23)CC1	-0.9	10.0	2152	2.0
40	COC(=O)Nc1nnc(COc2cccc(C)c2)s1	-0.1	9.0	2793	8.0
41	CCc1ccc(NC(=O)CCS(=O)(=O)c2ccc(Cl)cc2)cc1	-8.1	8.0	2917	7.1
42	CC(=NNC(=O)CNC(=O)c1cccnc1)c1ccc([N+](=O)[O-])cc1	6.1	1.1	x	7.4
43	COc1ccc2[nH]c(C)c(CCNCc3cc(OC)c(OC)c(OC)c3)c2c1	7.6	6.6	4546	3.0
44	COc1cccc(C(=O)Nc2cc(NC(=O)c3cccs3)ccc2C)c1	-4.1	-1.5	3491	3.2
45	CC1=NOC(=O)/C1=C\c1ccc(-c2cc(Cl)ccc2Cl)o1	x	x	2238	x
46	CC(c1ccccc1)n1c(CO)nc2ccccc21 (centres undefined)	-0.1	-0.5	3634	2.8
47	Cc1cc(NC(=O)c2cccnc2)ccc1NC(=O)c1cc2ccccc2o1	-8.9	-9.2	5716	0.1
48	Cc1ccccc1-n1c(O)c(/C=N/N2CCCCC2c2cccnc2)c(=O)[nH]c1=O (centres undefined)	1.6	-4.2	2004	2.8

no.	ugtP null kill	PrP UTR inh	BJeLR lethal
37	-2.4	-12.4	4.1
38	1.2	-22.5	-10.3
39	12.4	-29.3	3.7
40	0.9	-4.9	3.6
41	-1.2	x	-2.4
42	-3.0	x	x
43	2.2	-4.9	10.0
44	-3.2	-20.9	-5.3
45	x	-7.4	11.3
46	-1.5	-10.7	-2.1
47	-5.5	4.7	3.2
48	0.9	3.6	1.9

# Other compounds
no.	structure	Mtb hypoxia inh	Mtb hypoxia inh growth	Autofluor counter	Sa RN4220 lethal
49	COC(=O)CSc1nc2c(c(-c3ccco3)c1C#N)CCCC2	x	x	4007	4.3
50	CCCc1cc(=O)[nH]c(SCC(=O)Nc2cc(C)on2)n1	-4.1	-3.5	3953	6.6
51	CCOc1ccc(N2C(=O)C3CCCN3C2=S)cc1 (centres undefined)	7.8	4.4	4322	1.3
52	OC1(Cc2cc(-c3ccccc3)no2)CCN(CCCc2ccccc2)CC1	-1.8	11.9	4544	0.9
53	Cc1cccc(Nc2nc(OCC#N)nc(N(C)C)n2)c1	-1.6	11.9	3700	3.1
54	O=C1COc2ccc(C(=O)COC(=O)/C=C/c3ccc(Br)o3)cc2N1	x	x	6287	x
55	COc1ccc(CN(C(=O)COc2ccc(C)c(C)c2)C2CCS(=O)(=O)C2)cc1OC (centres undefined)	1.7	1.7	6011	3.8
56	OCCN(Cc1ccccc1)CC(O)COc1ccc(-c2ccccc2)cc1 (centres undefined)	10.7	9.2	2438	0.2
57	COc1ccc(-c2ncccc2OC(=O)C23CC4CC(CC(C4)C2)C3)cc1	7.2	2.0	8631	3.6
58	CC(=C\c1ccccc1)/C=C1/SC(=S)N(CCC(=O)O)C1=O	9.9	9.0	3371	13.4
59	Cc1ccc2cccc(SCC(=O)N3CCOCC3)c2n1	x	x	4397	0.5
60	O=C(Nc1ccc(N2CCOCC2)c(Cl)c1)c1cc2ccccc2o1	4.7	5.7	3092	0.4

no.	ugtP null kill	PrP UTR inh	BJeLR lethal
49	5.3	-21.3	-2.7
50	5.0	-25.2	3.9
51	1.7	-18.0	x
52	1.8	-18.6	7.5
53	-3.5	-6.6	-4.5
54	x	14.7	-9.7
55	-3.7	-19.6	-0.6
56	5.1	-10.6	6.2
57	4.1	-28.2	9.7
58	-0.5	-5.9	-5.5
59	0.4	-19.2	5.3
60	-8.3	-102.4	-2.0

# Other results:
no.	structure	Mtb hypoxia inh	Mtb hypoxia inh growth	Autofluor counter	Sa RN4220 lethal
61	CN(C)S(=O)(=O)c1cccc(NC(=S)N/N=C/C(=O)c2ccccc2)c1	x	x	7889	x
62	CCOC(=O)COn1c(=O)c(-c2ccc(F)cc2)[n+]([O-])c2ccccc21	-5.2	-20.2	3785	-1.7
63	CC1(c2ccccc2)NC(=O)N(CCN2C(=O)c3ccccc3C2=O)C1=O (centres undefined)	3.4	7.2	9054	2.5
64	Cn1c(Cc2ccccc2)nnc1SCC(=O)Nc1ccccc1N1CCOCC1	0.6	1.1	3955	-1.2
65	O=C(Nc1ccc(F)cc1F)N1CCCC(c2nc(-c3ccc(F)cc3)no2)C1 (centres undefined)	11.9	7.2	2142	4.1
66	CC(C)CN(C(=O)CSc1nc2ccccc2c(=O)n1C)C1CCS(=O)(=O)C1 (centres undefined)	-2.9	0.6	3525	-1.6

no.	ugtP null kill	PrP UTR inh	BJeLR lethal
61	x	-40.9	-15.1
62	-0.4	-51.0	5.5
63	-0.8	-9.6	-15.1
64	-0.5	-3.5	6.8
65	8.9	-7.9	0.2
66	0.1	5.4	x
